Yeast UUG start = modulators of start codon recognition fidelity in yeast; S. cerevisiae UUG-firefly luciferase reporter, luminescence/redox ratio; activity score, % at 18.7 µM; hit rate 0.13% among 350,000; AID 602363;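 active means replicate mean at a twofold rise or more, about +100% in these data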;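 further: firefly luciferase made from a UUG start codon reports start codon fidelity; reporter light over untreated wells divided by growth signal over untreated wells; some hits fall short of that in this replicate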
CSC inhib = blocks cancer stem cells | cancer stem cell-like cells viability, luminescence | inhibition, % at 7.5 µM | hit rate 1.1% among 300,000;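 active means mean at 75% or more and at least half the replicates too; inconclusive means mean and replicates disagree; tested in HMLE shEcad cells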;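 further: 0% = median of negative and 100% = median of positive control wells; the first replicate is given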
eIF4H inh = inhibitors of RNA binding by human eIF4H | inhibition, % at 35 µM | eIF4H fluorescence polarization binding assay | hit rate 0.94% among 290,000;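 active means 50% or more with normal probe brightness, or confirmed in later tests; inconclusive means above 50% with abnormal brightness, or retests that disagree; inactive means below 50% or failed in later tests; about a fifth of its hits are not listed in these tables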;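 further: calls also rest on retests at 20 µM and on dose response follow-up; 0% = protein and probe with vehicle and 100% = probe without protein; strong numbers were not always called active; many hits fall short of the cut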
MT1-MMP act inh = MT1-MMP (human) activation inhibition; AID 651647; hit rate 0.061% among 360,000; HT1080 RFP-PRO-GFP cells, GFP/RFP ratio fluorescence, overnight; percent of plate control window, DMSO zero; GFP/RFP ratio change, % at 20 µM;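 active means GFP/RFP ratio change of at least 30% with cell ATP level not reduced by more than half and red fluorescence within 50% of control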; further: strong numbers were not always called active
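system = RFP-PRO-GFP reporter HT1080 cells | dosing = 20 µM single dose, 1% DMSO | timing = overnight cell settling, then overnight compound exposure, 37 °C, 5% CO2 | read-out basis = GFP/RFP fluorescence ratio | controls = DMSO and RFP-L50D-GFP cell wells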
HIV Env fusion = inhibitors of HIV Env-mediated cell fusion. HeLa-JRFL Env/CEM21 cell fusion, luciferase. inhibition, % at 12.3 µM. hit rate 1.1% among 360,000;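 active means mean replicate inhibition score of at least 50 and every replicate individually at or above 50; inconclusive means only one of the two criteria met; inactive means mean below 50 and not all replicates reaching 50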;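 further: 0% = plate neutral controls and 100% = maraviroc near 300 nM; one replicate is shown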
Rce1 inhib = inhibitors of yeast Ras-converting enzyme | Q03530 | yeast membranes, quenched prenylated peptide cleavage fluorescence | calls only | hit rate 0.27% among 290,000;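 active means fall in fluorescence gain of 50% or more versus controls, with final raw signal at or below 3038400; inconclusive means same 50% fall but final raw signal above 3038400; inactive means fall in fluorescence gain under 50%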;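 further: plate controls were neutral control wells for no effect and wells lacking membranes for full effect; tested at 10 µM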
PABP polyA inh = blocks human PABP binding to poly(A) RNA. P11940. inhibition, % at 35 µM. hit rate 1% among 290,000. fluorescence polarization;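 active means 50% or more with normal probe brightness, or confirmed in later tests; inconclusive means above 50% with abnormal brightness, or retests that disagree; inactive means below 50% or failed in later tests; about a fifth of its hits are not listed in these tables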;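 further: calls also rest on retests at 20 µM and on dose response follow-up; controls were probe without protein and protein plus probe with vehicle; some compounds called inactive have numbers as strong as hits; many hits fall short of the cut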
Target sequence (P11940 whole entry, looked up): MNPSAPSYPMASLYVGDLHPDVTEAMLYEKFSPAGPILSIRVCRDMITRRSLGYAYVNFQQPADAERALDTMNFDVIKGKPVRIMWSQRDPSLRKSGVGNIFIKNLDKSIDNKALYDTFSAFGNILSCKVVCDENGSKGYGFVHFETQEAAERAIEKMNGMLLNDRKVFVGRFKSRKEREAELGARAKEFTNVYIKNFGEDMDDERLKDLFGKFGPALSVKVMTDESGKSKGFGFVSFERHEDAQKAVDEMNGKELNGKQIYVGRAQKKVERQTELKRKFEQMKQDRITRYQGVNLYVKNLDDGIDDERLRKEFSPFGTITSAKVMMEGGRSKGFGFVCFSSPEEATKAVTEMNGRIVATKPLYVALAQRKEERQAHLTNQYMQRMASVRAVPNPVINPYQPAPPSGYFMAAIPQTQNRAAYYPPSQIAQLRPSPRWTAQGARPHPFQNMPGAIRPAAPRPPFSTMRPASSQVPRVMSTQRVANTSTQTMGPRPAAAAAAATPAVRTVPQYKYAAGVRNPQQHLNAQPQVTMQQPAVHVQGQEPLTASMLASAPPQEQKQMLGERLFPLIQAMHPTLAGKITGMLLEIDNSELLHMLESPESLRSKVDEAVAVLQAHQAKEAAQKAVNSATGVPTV
eIF4H inh retest = second read-out of eIF4H inh, no call of its own (marks repeat the call); inhibition, %; compound at 20 µM; confirmation average;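 mean of two retest wells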
PABP polyA inh retest = also measured in PABP polyA inh; calls as there; inhibition, %; compound at 20 µM; confirmation repeats;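 mean of two retest wells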
MT1-MMP act inh RFP = also measured in MT1-MMP act inh; calls as there; RFP signal change, %; measured here: RFP expression control read;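 0 = vehicle wells; hits needed this value within 50% of zero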
* = called active by the depositor; i = inactive; ? = inconclusive; · = no result given; & = joins results of further samples. Compounds as they come; 2.9% or so of the library scored in one or more.

SMILES | Yeast UUG start | CSC inhib | eIF4H inh | MT1-MMP act inh | MT1-MMP act inh RFP | HIV Env fusion | Rce1 inhib | PABP polyA inh | others
O=C(CSc1nc(-c2ccccc2)c(-c2ccccc2)[nH]1)Nc1ccc2c(c1)OCO2 | · | 14 | 0 | 6 | -1 | -30 | i | 1
COc1cc2c(cc1OC)-c1nc3ccccc3c(=O)n1C(C)(C)C2 | -18 | 5 | -14 | 6 | 1 | 3 | i | -4
Cc1cc(F)ccc1S(=O)(=O)N1CCCOC1CNC(=O)C(=O)NCc1ccco1 (stereo unspecified) | · | -4 | 4 | 3 | 5 | 32 | i | -10
CNc1nc(SCC(=O)Nc2ccccc2)nc(N2CCOCC2)n1 | -7 | -9 | 16 | 2 | 4 | 0 | i | 5
COc1c(/C=C2\SC(=Nc3ccccc3Cl)NC2=O)cccc1[N+](=O)[O-] | -7 | 8 | 9 | 10 | -2 | 5 | i | 0
Cc1ccc(Cn2c(=O)n(C)c(=O)c3sccc32)cc1 | 0 | 0 | -3 | -8 | -22 | 17 | i | -8
Cc1ccc(NC(=O)CCNS(=O)(=O)c2cc(Br)cnc2N)c(Cl)c1 | · | -2 | -3 | · | · | · | i | 4
COc1ccc2c(c1)-c1ccccc1S(=O)(=O)N2C(C)=O | 11 | · | -6 | -3 | 1 | · | · | -7
O=C(O)C1(O)C[C@H](O)C(O)[C@@H](O)C1 (stereo partly specified) | 0 | -1 | · | -2 | 3 | 8 | · | ·
CCC(=O)Nc1ccc(NC(=O)CSc2nnnn2-c2cccnc2)cc1C | 1 | 8 | -10 | 4 | 1 | · | i | 5
O=C(N/N=C/c1ccc(N2CCOCC2)cc1)c1cccs1 | · | 0 | -7 | -4 | -1 | -18 | i | -1
CCCCC(CC)CNC(=O)c1ccc2c(c1)OCO2 (stereo unspecified) | -14 | 6 | 9 | -3 | 4 | · | i | 2
NNC(=O)c1nn(-c2ccccc2)cc1O | · | -7 | 79 | · | · | · | i | -1 | eIF4H inh retest=-5;PABP polyA inh retest=20
CC(=O)N(C)c1ccc(NC(=O)c2ccc([N+](=O)[O-])cc2Cl)cc1 | -1 | -14 | -2 | 4 | 5 | -15 | i | 8
Nc1nnnn1N=C1CCCCC1 | 1 | 7 | -2 | 4 | 7 | · | i | -4
Cn1c(-c2ccc(C#N)cc2)c(C#Cc2ccccc2)c2ccccc21 | -7 | · | · | -25 | -12 | -19 | · | ·
CC(Sc1nncs1)C(=O)Nc1ccc(Cl)cn1 (stereo unspecified) | -4 | -6 | -6 | 0 | 0 | -3 | i | -69
Cn1nc(C(=O)NCc2ccccn2)c2ccccc2c1=O | -14 | -21 | · | 3 | 2 | 12 | i | ·
O=[N+]([O-])c1cccc(Cl)c1N1CCOCC1 | -15 | · | 1 | -9 | -1 | -307 | i | -5
COc1cccc(NC(=O)C(=O)c2cn(CC(=O)N3CCOCC3)c3ccccc23)c1 | -4 | 1 | -12 | -3 | 2 | -13 | i | -2
COc1ccccc1N(CN1CCCC1=O)C(=O)c1c(F)cccc1F | -8 | -6 | 4 | -2 | 0 | -4 | i | -3
COc1ccc(OC)c(N2C(=O)CC(Cc3ccc(Cl)cc3)C2=O)c1 (stereo unspecified) | -2 | -9 | 2 | 7 | 0 | · | i | -9
CS(=O)(=O)N(CC(=O)NCCSc1ccc(Cl)cc1)c1ccc2c(c1)OCO2 | -11 | -1 | 0 | -1 | -2 | · | i | -1
COc1ccc(NC(=O)c2ccc(CNS(=O)(=O)c3cccc(OC)c3)cc2)cc1 | -8 | -7 | -12 | 3 | -1 | · | i | -3
CCOC(=O)c1c(-c2ccc(F)cc2)csc1NC(=O)CCN1C(=O)c2ccccc2C1=O | -8 | 38 | -6 | -3 | 0 | 14 | i | -4
CC(C)(C)OC(=O)N(Cc1ccccc1)Cc1ccc(OCc2cccc(NC(=O)C3CC3)c2)cc1 | -6 | · | · | 7 | -29 | 24 | · | ·
CC(=O)/C=C(/C)NC(Cc1c[nH]c2ccccc12)C(=O)O (stereo unspecified) | -12&-6 | -4&-4 | -11&4 | -1&-5 | 4&1 | · | i | 0&-9
CCn1cnc2sc(C(=O)N3CCN(c4ccc(OC)cc4)CC3)c(C)c2c1=O | -17 | -7 | -1 | -1 | -1 | -4 | i | -1
CCOC(=O)N1CCN(C(=O)Cn2nc(C)n3nc(-c4ccc(OC)cc4)cc3c2=O)CC1 | 2 | -10 | -19 | -1 | 0 | -1 | i | 5
O=C(CCNC(=O)c1ccc(Br)cc1)Nc1ccccc1N1CCCC1 | 3 | -10 | · | 2 | 1 | 1 | i | ·
CCn1c(SCc2cc(=O)n3ccsc3n2)nc2ccccc21 | -10 | 1 | 54 | -3 | 2 | 9 | i | -6 | eIF4H inh retest=-5;PABP polyA inh retest=2
CC(C)CCOc1ccc(C(=O)Nc2cc(S(=O)(=O)N3CCOCC3)ccc2N2CCOCC2)cc1 | -21 | · | · | -19 | -19 | -12 | · | ·
COc1ccccc1CNC(=O)c1ccc(NC2=NC3CS(=O)(=O)CC3S2)cc1 (stereo unspecified) | -2 | -9 | 10 | 1 | 3 | -3 | i | 14
COc1ccc(CNC(=O)CN(Cc2ccccc2)S(=O)(=O)c2ccc(Cl)cc2)cc1 | -15 | 2 | -14 | 3 | -4 | 22 | i | -2
CCOC(=O)N1CCN(Cc2ccc(OCC(O)CN3CCCCC3)cc2)CC1 (stereo unspecified) | -10 | -15 | 2 | 6 | 4 | -8 | i | 9
CC(C)c1nnc(NC(=O)COc2ccc3c(c2)OCO3)s1 | -5 | 31 | 1 | 2 | 4 | -12 | · | 10
CCCNC(=O)COC(=O)/C(C#N)=C/c1cc(C)n(CCC)c1C | -2 | · | -1 | 5 | -1 | 4 | i | 27
Cc1cc(C2=NNC(=NCCc3ccccc3)SC2)c(C)n1-c1c(C)n(C)n(-c2ccccc2)c1=O | -13 | -6 | -8 | -4 | -4 | -11 | i | -3
COc1ccc(-c2nnn(CC(=O)c3ccccc3)n2)cc1OC | 6 | -7 | -3 | 3 | 4 | · | i | 7
CCOC(=O)C(=O)N=Nc1c(O)n(C)c2ccccc12 | · | -9 | 8 | 3 | 5 | 13 | i | -7
CSc1ccccc1C(=O)Nc1cccc(C(C)O)c1 (stereo unspecified) | -18 | -5 | 3 | 6 | 2 | · | i | 10
COc1cc(CCCN2C(N)=NC[C@@H]2Cc2ccc(O)cc2)cc(OC)c1OC | -14 | 8 | -3 | 1 | -7 | 11 | i | -9
O=C(O)c1ccccc1-c1ccccc1C(=O)Nc1ccc(-c2nc3cc(Cl)ccc3o2)cc1 | · | 61 | 10 | 6 | 3 | -30 | i | 13
CCOC(CNC(=O)c1ccc2nc(N3CCC(C)CC3)sc2c1)OCC | -23 | -16 | -1 | -2 | -9 | -197 | i | -3
O=C(c1ccc(Cl)c([N+](=O)[O-])c1)N(Cc1ccco1)C1CCS(=O)(=O)C1 (stereo unspecified) | -35 | -14 | -6 | -1 | 4 | 4 | i | 5
CCOC(=O)CN1C(=O)C(=O)N(Cc2c(C)cc(C)cc2C)C1=O | · | -16 | 4 | 1 | 1 | -2 | i | -4
COc1ccc(C(=O)c2c[nH]c(C(=O)NCC3CCCO3)c2)cc1 (stereo unspecified) | -13 | 9 | -2 | 2 | 1 | · | i | 15
CCOCCCNC(=O)Cc1ccc(F)cc1 | · | -6 | 3 | · | · | -49 | i | 8
CSCC[C@H](N)C(=O)N1CCC(C(=O)N[C@H](C)C(=O)Nc2ccc(C(C)C)cc2)CC1 | -5 | -5 | -12 | 5 | 6 | -10 | i | 2
COc1ccc(CCC(C)NCc2ccc(C(F)(F)F)cc2)cc1 (stereo unspecified) | -7 | 17 | 1 | 0 | 3 | 37 | i | -1
(list continues)
SMILES | Yeast UUG start | CSC inhib | eIF4H inh | MT1-MMP act inh | MT1-MMP act inh RFP | HIV Env fusion | Rce1 inhib | PABP polyA inh | others
COc1ccc(OC)c(NC(=O)CCN2CCC(C)CC2)c1 | -19 | · | -1 | 8 | 6 | · | i | -7
CC(C)CCNC(=O)CCSCCC(=O)NCCC(C)C | -5 | -9 | -6 | 2 | 3 | -7 | i | -5
CCCNc1c(NC(=O)COc2ccc(Cl)cc2)c(=O)oc2ccccc12 | 5 | -5 | -15 | 4 | 6 | 6 | i | 2
Cc1cccc(C)c1NC(=S)N(Cc1cccnc1)Cc1ccccc1Cl | -16 | -9 | 2 | 1 | 1 | -1 | i | -10
CC(C)C1=CC(=NS(=O)(=O)c2cccc([N+](=O)[O-])c2)C=C(C(C)C)C1=O | -3 | -12 | -6 | 1 | 2 | · | i | -3
CCCCNc1c(C(=O)OCC)c(=O)[nH]c2ccccc12 | -21 | -15 | -4 | 1 | -3 | · | i | -4
COc1ccc2nc(NC(=O)c3cccc(-c4cc5ccccc5oc4=O)c3)sc2c1 | · | ? | 15 | -8 | -11 | -85 | i | -14
CCCc1c(C(=O)N/N=C/c2cccnc2)nnn1-c1nonc1N | -9 | -10 | · | 3 | 4 | 11 | i | ·
Cc1ccc(CNC(=O)COC(=O)[C@@H]2CC(O)CN2S(=O)(=O)c2ccc3c(c2)OCCO3)cc1 (stereo partly specified) | · | 6 | 3 | -1 | 4 | 2 | i | -2
CN(C)c1ccc(C2Nc3ccccc3C(=O)N2CCN2CCNC2=O)cc1 (stereo unspecified) | -5 | 6 | -4 | 2 | -2 | 9 | i | 2
Cc1c(C(=O)N(C)c2ccccc2Cl)cnn1-c1ccccc1 | -8 | -5 | -14 | -3 | -3 | -2 | i | 4
COc1cccc(C(=O)CSc2nnc(-c3ccco3)n2CC2CCCO2)c1 (stereo unspecified) | -10 | -1 | -6 | -2 | 1 | -81 | i | 1
